GLA inh pH 4.5 – alpha-galactosidase A (human) inhibition, pH 4.5; P06280; activity change, negative = inhibition, % at 105 µM; purified enzyme, 4-MU-alpha-Gal fluorescence, pH 4.5; 230,000 tested, under 10 active; inconclusive = small, poorly fitted or top-dose-only inhibition, or a rising curve; inactive = flat fitted curve, though single readings scatter; no compound was filed as active;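 also: 0% = full activity with enzyme and -100% = basal without enzyme; dose as in the result columns while the protocol names 77 µM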
Rango release inh – inhibitors of RanGTP-induced Rango-importin beta complex dissociation. Potency, µM (titrated, usually from 46.1 µM), inactives show at the top dose activity change, negative = inhibition. O95149+P62826. Biochemical FRET Rango-importin beta, RanGTP-induced dissociation. 0.071% of 340,000 active; active means falling FRET ratio curve, often poorly fitted, with flat reads before Ran was added; inconclusive means other falling curves, or compound fluorescence or quenching; inactive means flat or rising ratio curve;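 also: potency is read from the fitted curve at half-maximal effect; % of control where 0% means no effect; nearly all actives have a fitted effect of over 45% in size; -100% = wells without RanGTP and RCC1; the record marks most hits as doubtful in a second field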
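Two FRET readings bracket the reaction: one 5 min after compound meets Rango–importin beta, another 45 min after RanGTP-RCC1 (0.6 uM Ran, 0.2 uM RCC1, 2 mM GTP) is added. Only the second defines inhibition.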
Rango complex inh – prevents formation of the Rango-importin beta complex | Potency, µM (titrated, usually from 92.2 µM), for the others: top-dose inhibition of complex formation | Q14974 | Rango CFP/YFP FRET sensor + importin beta, 45 min | 0.031% of 340,000 active; active = rising FRET ratio curve, often small or poorly fitted; inconclusive = mostly compound fluorescence or quenching in the first reads; inactive = flat curves in all reads;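 also: potency is read from the fitted curve at half-maximal effect; 0% = DMSO wells and 100% = buffer wells lacking importin beta; nearly all actives have a fitted effect of over 15% in size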
Target sequence (Q14974 whole entry, looked up): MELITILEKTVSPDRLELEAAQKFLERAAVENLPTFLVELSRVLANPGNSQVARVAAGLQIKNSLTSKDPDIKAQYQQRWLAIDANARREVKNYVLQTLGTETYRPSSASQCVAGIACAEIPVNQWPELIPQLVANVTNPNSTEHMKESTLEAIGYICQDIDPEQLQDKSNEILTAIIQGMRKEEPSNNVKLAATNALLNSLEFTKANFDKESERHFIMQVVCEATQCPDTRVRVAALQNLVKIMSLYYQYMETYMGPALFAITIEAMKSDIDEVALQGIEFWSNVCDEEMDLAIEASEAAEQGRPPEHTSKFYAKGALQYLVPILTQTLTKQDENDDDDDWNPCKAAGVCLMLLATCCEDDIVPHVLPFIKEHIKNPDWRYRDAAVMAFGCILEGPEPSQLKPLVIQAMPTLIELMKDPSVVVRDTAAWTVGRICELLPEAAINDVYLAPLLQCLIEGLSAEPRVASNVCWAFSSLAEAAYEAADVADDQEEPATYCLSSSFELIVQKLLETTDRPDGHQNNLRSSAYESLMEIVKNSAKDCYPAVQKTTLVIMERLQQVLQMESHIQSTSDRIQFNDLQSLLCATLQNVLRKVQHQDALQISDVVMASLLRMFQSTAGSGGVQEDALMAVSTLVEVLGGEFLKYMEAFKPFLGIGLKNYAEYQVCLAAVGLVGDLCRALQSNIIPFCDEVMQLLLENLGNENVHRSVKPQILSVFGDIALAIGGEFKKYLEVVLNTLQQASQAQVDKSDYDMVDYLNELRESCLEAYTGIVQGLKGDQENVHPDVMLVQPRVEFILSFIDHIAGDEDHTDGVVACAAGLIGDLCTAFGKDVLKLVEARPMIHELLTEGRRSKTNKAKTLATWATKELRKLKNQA
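FRET biosensor (snurportin 1 IBB flanked by EYFP and cerulean), 50 nM, with compound 5 min, then 0.125 microM importin beta in PBS, 1 mM DTT, 0.02% Tween-20, 0.1% BSA. CFP/YFP ratio read after 45 min at room temperature; pre-read flags interference.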
miR-21 FLuc – miR-21 reporter, rising signal; HeLa miR-21 FLuc reporter, luciferase, 48 h; Potency, µM (titrated, usually from 38.3 µM), inactives show at the top dose reporter change, positive = more light; 340,000 tested, under 10 active; active = well fitted rising curve with a large enough effect; inconclusive = small, poorly fitted or top-dose-only effect; inactive = no such curve, though single readings can be large or run the other way;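 also: % of control where 0% means no effect; miR-21 action dims this reporter so a rising signal means less miR-21 action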
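HeLa cells endogenously expressing miR-21, stably carrying CMV-driven firefly luciferase with a downstream miR-21 binding site, 2000 cells/well. Titrations up to approximately 40 uM, 48 hours; luciferase luminescence read.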
An asterisk follows results filed as active; ? = inconclusive; . = no result given. A portion of the library; rates above refer to the full screens.

GLA inh pH 4.5	SMILES	Rango release inh	Rango complex inh	miR-21 FLuc
.	C[C@H](CO)N1C[C@H](C)[C@@H](CN(C)S(=O)(=O)c2cn(C)cn2)Oc2ccc(NC(=O)C3CC3)cc2C1=O	-5%	-2.0%	.
.	O=C(/C=C/c1ccc(Cl)cc1)NCCCn1ccnc1	4%	8.1%	-16%
5	NS(=O)(=O)c1ccc(NC(=O)Nc2ccccc2)cc1	-2%	-1.1%	-19%
-5	COCCCNC(=O)C1CC(=O)N(CCc2ccc(OC)c(OC)c2)C1 (configuration not stated)	-4%	-0.6%	-2%
0	O=C(CN1CCc2ccccc2C1)N1CCN(S(=O)(=O)c2ccccc2)CC1	-22%	-1.6%	-4%
1	Cc1csc(NC(=O)NC2(C(F)(F)F)Oc3ccccc3O2)n1	1%	-0.2%	-27%
.	COc1cc(C)c2c(c1OC)C(=O)CC2	-5%	0.1%	.
-3	O=C(Cn1nnc(-c2ccccc2-n2cnnn2)n1)N1CCCCC1	29%	3.0%	1%
.	CC(C)(C)c1ccc(S(=O)(=O)N2CCc3nc4ccccc4c(C(=O)O)c3C2)cc1	-13%	0.1%	-1%
.	COc1cccc(-n2c(N)cc(=O)nc2SCC(=O)Nc2cc(C)on2)c1	7%	-3.4%	2%
.	CC(C)C[C@H](NC(=O)c1nc[nH]c1C(=O)NCCCCCN)C(=O)OCc1ccccc1	1%	0.0%	.
.	O=C(CN1CCN(S(=O)(=O)c2ccc(Cl)c(C(F)(F)F)c2)CC1)NC(=O)NC1CCCCC1	19%	-1.4%	.
-8	Cc1cc(NS(=O)(=O)c2ccc(NC(=O)COc3ccccc3C(C)C)cc2)no1	-3%	5.2%	-14%
.	CCOc1cc(S(=O)(=O)N2CCN(S(=O)(=O)CC)CC2)c(OCC)cc1-n1cnnn1	3%	?	-4%
4	COc1ccc(N2C(=O)C(Cc3ccccc3)NC2=S)cc1 (configuration not stated)	-3%	-0.2%	-3%
.	Cc1ccc(OCc2cc(C(=O)NCc3cn4ccccc4n3)no2)cc1C	?	-0.4%	-10%
-6	NC(=O)[C@H]1CC2(CC(c3cccc(NC(=O)[C@H]4CCC(=O)N4)c3)=NO2)CN1C(=O)c1ccccc1 (some centres not stated)	3%	0.1%	4%
.	COc1ccc(NC(=O)c2ccc(-n3cnnn3)cc2)c([N+](=O)[O-])c1	8%	0.1%	-1%
-9	O=C(c1cc([N+](=O)[O-])ccc1N1CCOCC1)N1CCOCC1	-21%	-0.1%	-1%
0	Cc1cc2cc(CN(CCN(C)C)C(=S)NCc3ccco3)c(=O)[nH]c2cc1C	-23%	0.3%	1%
.	CCC(=NCCc1ccc(OC)c(OC)c1)c1ccccc1O	-3%	-2.9%	-4%
.	C[C@H](NC(=O)c1nc[nH]c1C(=O)N[C@@H](C)C(=O)OCc1ccccc1)C(=O)OCc1ccccc1	16%	-1.5%	5%
8	CCOC(=O)C(=CNc1nc2ccc(C(=O)OCC)cc2s1)C(=O)OCC	-4%	?	-9%
.	CS(=O)c1ccccc1O (configuration not stated)	2%	1.5%	-9%
.	O=[N+]([O-])c1ccc(N=Nc2ccc(O)c3ccccc23)cc1	-20%	0.1%	.
.	O=C(CCC(=O)N(CC(=O)NC1CCCCC1)Cc1ccccc1)Nc1nccs1	3%	2.9%	-6%
6	O=c1cc(COc2ccccc2[N+](=O)[O-])nc2sccn12	-3%	3.1%	-10%
7	CCc1nnc(NC(=O)C2CCCN(S(=O)(=O)c3ccc(OC)cc3)C2)s1 (configuration not stated)	-1%	-1.2%	-14%
0	Cc1ccsc1C(=O)OCC(=O)N1CC(=O)Nc2ccccc21	12%	0.2%	-10%
.	O=C1c2ccccc2C(=O)N1CCOc1ccccc1Br	4%	0.5%	-57%
-13	O=C(c1cn(-c2ccc(Cl)c(Cl)c2)nn1)C1CC1	-8%	17%	-19%
.	CCCn1c(N2CCN(C(=O)/C=C/C(=O)O)CC2)nc2ccccc21	-10%	0.7%	1%
3	COc1cc(OC)cc(OCC(O)Cn2ccnc2)c1 (configuration not stated)	13%	0.2%	1%
-10	CCOC(=O)c1c(CSCc2ccccc2)oc2ccc(O)c(CN(C)C)c12	-9%	16%	27%
1	O=c1ccc(Oc2nc(N3CCOCC3)nc(N3CCOCC3)n2)nn1-c1ccccc1	0%	2.0%	-4%
9	O=S(=O)(c1ccccc1)c1nc(-c2ccco2)oc1NCc1cccnc1	2%	0.5%	5%
-3	COc1ccc(C[C@H]2CN3C(=NC[C@H]3C)N2CCNC(=O)CCC2CCCCC2)cc1	9%	?	-2%
-19	COC(=O)c1ccc(NCCc2csc(-c3ccc(C)cc3)n2)c([N+](=O)[O-])c1	1%	0.7%	-4%
.	CC(C)C(NC(=O)Nc1ccccc1)C(=O)Nc1cccc(S(=O)(=O)N(C)C)c1 (configuration not stated)	-1%	-4.1%	-3%
-23	Cc1ccccc1-n1c(C)n[nH]c1=S	3%	0.2%	-7%
-11	CCCCc1nn(-c2cc(Cl)ccc2OC)c2c1C(=O)CCC2	31%	-0.2%	-8%
-6	COc1cccc(-n2c(Cc3cc(=O)[nH]c(=O)[nH]3)nnc2SCC(=O)N2CCCCC2)c1	-6%	0.0%	-2%
1	Cc1ccc(-n2c(SCC(N)=O)nnc2-c2cccnc2)c(C)c1	-4%	0.9%	-2%
-6	O=C(c1ccc(F)cc1)C1CCN(Cc2cn[nH]c2-c2ccc(F)cc2)CC1	0%	-4.0%	11%
-2	Cc1ccc(NC(=O)CN2CCC(NC(=O)Cc3ccccc3)CC2)c(C)c1	2%	0.3%	-4%
-19	CCOC(=O)C1=C(C)N=C2SC(C)C(=O)N2C1c1ccc(OCC)c(OCC)c1 (configuration not stated)	-3%	-0.2%	0%
10	CN(C)C=NC(=O)c1cc(C(=O)c2ccccc2Cl)c[nH]1	1%	0.4%	-2%
-3	CN(C)/C=C(\C#N)C(=O)Nc1ccc(F)cc1	-19%	2.4%	-46%
.	O=C1CC(c2ccc(Cl)cc2)Oc2ccc(Cl)cc21 (configuration not stated)	0%	7.3%	.
.	CCOc1ccccc1NC(=O)C1C2CCC(O2)C1C(=O)O (configuration not stated)	6%	-0.3%	3%
-7	Cc1ccc(CN2CCN(Cc3ccc(C)s3)CC2CCO)cc1 (configuration not stated)	-6%	-0.2%	-2%
5	NC(=O)Cn1cc(C(=O)COc2ccccc2)c2ccccc21	.	.	-8%
-12	O=C1CC2CS(=O)(=O)CC2N1c1ccc(Oc2ccccc2)cc1 (configuration not stated)	0%	-1.4%	0%
2	COc1ccc(Oc2cccc(Cl)c2CNC(=O)CCC(=O)O)cc1	1%	6.3%	-5%
6	CCOC(=O)C1=C(N)Oc2c(oc(CO)cc2=O)C1c1ccccc1 (configuration not stated)	1%	3.2%	-2%
.	O=S(=O)(NCC1CCCO1)c1ccccc1F (configuration not stated)	6%	0.5%	6%
.	CCCCn1c(N)c(N(CC(C)C)C(=O)Cn2c(=O)cnc3ccccc32)c(=O)[nH]c1=O	?	-2.1%	.
-3	Cc1ccc(NC(=S)NCCCN2CCOCC2)cc1C	-14%	-0.3%	-2%
.	Cc1cc(N2C(=O)C(O)=C(C(=O)c3ccc(C)o3)C2c2cccc(Oc3ccccc3)c2)no1 (configuration not stated)	-18%	?	-7%
-4	CCOc1ccc(C(=O)C2CCN(C(=O)c3ccccc3C(=O)O)CC2)cc1	8%	-5.4%	1%

Seven of the compounds above, as a markdown table.
| mol | GLA inh pH 4.5 | Rango release inh | Rango complex inh | miR-21 FLuc |
| --- | --- | --- | --- | --- |
| Cc1ccc(CN2CCN(Cc3ccc(C)s3)CC2CCO)cc1 (configuration not stated) | -7 | -6% | -0.2% | -2% |
| NC(=O)Cn1cc(C(=O)COc2ccccc2)c2ccccc21 | 5 | . | . | -8% |
| O=C1CC2CS(=O)(=O)CC2N1c1ccc(Oc2ccccc2)cc1 (configuration not stated) | -12 | 0% | -1.4% | 0% |
| COc1ccc(Oc2cccc(Cl)c2CNC(=O)CCC(=O)O)cc1 | 2 | 1% | 6.3% | -5% |
| CCOC(=O)C1=C(N)Oc2c(oc(CO)cc2=O)C1c1ccccc1 (configuration not stated) | 6 | 1% | 3.2% | -2% |
| O=S(=O)(NCC1CCCO1)c1ccccc1F (configuration not stated) | . | 6% | 0.5% | 6% |
| CCCCn1c(N)c(N(CC(C)C)C(=O)Cn2c(=O)cnc3ccccc32)c(=O)[nH]c1=O | . | ? | -2.1% | . |

Next section.
GLA inh pH 4.5	SMILES	Rango release inh	Rango complex inh	miR-21 FLuc
1	Cc1cc(C)n(C(=O)COc2ccc(Cl)cc2Cl)n1	-5%	-1.2%	-7%
5	CCN1CCN(S(=O)(=O)c2ccc(S(=O)(=O)NCC3CCCO3)cc2)CC1 (configuration not stated)	4%	-2.9%	-2%
3	Cc1ccc(NC(=O)C2CC(=O)NC(Nc3cccc(C)c3)=N2)cc1 (configuration not stated)	14%	4.6%	1%
-4	Cc1ccccc1NC(=O)c1ccc(C)c(S(=O)(=O)Nc2ccccn2)c1	5%	-8.0%	-6%
-7	COC(=O)c1ccc(NC(=S)NCCc2cccc(C)c2)cc1	9%	1.8%	8%
.	O=C(/C=C/c1ccccc1[N+](=O)[O-])NCCCN1CCCC1=O	-3%	0.6%	-13%
-5	O=C(CCCc1ccccc1)NC1CC1	7%	-0.4%	-11%
9	Cc1cccc(Nc2nnc(SCC(=O)c3ccc(Br)s3)s2)c1C	1%	0.0%	-9%
.	C=CC[C@@H](CC(=O)N[C@H](CO)Cc1ccccc1)C(=O)N[C@H](COC(=O)[C@@H](CC=C)Cc1ccc(F)cc1)Cc1c[nH]c2ccccc12	0%	2.9%	.
8	CCCCOC(=O)CCCN1C(=O)/C(=C2\SC(=S)N(CCCC(=O)OCCCC)C2=O)SC1=S	5%	-1.9%	1%
.	CC(C)n1cc(CN2CCN(C)C(CCO)C2)c2ccccc21 (configuration not stated)	0%	-1.7%	0%

Compound activity as filed in PubChem BioAssay.
